UUG fidelity: yeast start codon fidelity modulation; S. cerevisiae UUG-firefly luciferase reporter, luminescence/redox ratio; activity score, % at 18.7 µM; 350,000 compounds, 0.13% hits;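 active = replicate mean at a twofold rise or more, about +100% in these data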;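 also: firefly luciferase made from a UUG start codon reports start codon fidelity; reporter light over untreated wells divided by growth signal over untreated wells; some hits fall short of that in this replicate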
CSC inhib: blocks cancer stem cells; cancer stem cell-like cells viability, luminescence; inhibition, % at 7.5 µM; 300,000 compounds, 1.1% hits;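 active = mean at 75% or more and at least half the replicates too; tested in HMLE shEcad cells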;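 also: 0% = median of negative and 100% = median of positive control wells; the first replicate is given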
MT1-MMP act inh: inhibitors of human MT1-MMP activation; AID 651647; 360,000 compounds, 0.061% hits; HT1080 RFP-PRO-GFP cells, GFP/RFP ratio fluorescence, overnight; percent of plate control window, DMSO zero; P50281; GFP/RFP ratio change, % at 20 µM;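 active = GFP/RFP ratio change of at least 30% with cell ATP level not reduced by more than half and red fluorescence within 50% of control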; also: strong numbers were not always called active
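Test system: HT1080 RFP-PRO-GFP cells; Benchmarks: DMSO and RFP-L50D-GFP cell wells; Timing: cells overnight before dosing, compound overnight, 37 °C, 5% CO2; Compound: one 20 µM compound dose with 1% DMSO; Read-out: GFP/RFP fluorescence ratio.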
Rce1 inh: blocks yeast Ras-converting enzyme | yeast membranes, quenched prenylated peptide cleavage fluorescence | 290,000 compounds, 0.27% hits | Q03530 | calls only;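 active = fall in fluorescence gain of 50% or more versus controls, with final raw signal at or below 3038400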;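 also: plate controls were neutral control wells for no effect and wells lacking membranes for full effect; tested at 10 µM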
Target sequence (Q03530 whole entry, looked up): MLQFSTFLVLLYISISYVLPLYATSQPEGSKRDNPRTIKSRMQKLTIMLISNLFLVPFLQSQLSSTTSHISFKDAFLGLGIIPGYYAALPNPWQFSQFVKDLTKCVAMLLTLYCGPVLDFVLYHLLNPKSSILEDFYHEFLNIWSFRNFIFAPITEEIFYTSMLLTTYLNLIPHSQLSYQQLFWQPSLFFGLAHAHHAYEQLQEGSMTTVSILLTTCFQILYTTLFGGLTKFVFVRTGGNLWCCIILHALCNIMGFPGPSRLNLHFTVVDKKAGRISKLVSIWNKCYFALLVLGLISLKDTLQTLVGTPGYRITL
eIF4H inh: inhibitors of RNA binding by human eIF4H | 290,000 compounds, 0.94% hits | eIF4H fluorescence polarization binding assay | inhibition, % at 35 µM | Q15056;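 active = 50% or more with normal probe brightness, or confirmed in later tests; about a fifth of its hits are not listed in these tables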;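 also: calls also rest on retests at 20 µM and on dose response follow-up; 0% = protein and probe with vehicle and 100% = probe without protein; strong numbers were not always called active; many hits fall short of the cut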
HIV Env fusion: inhibitors of HIV Env-mediated cell fusion | HeLa-JRFL Env/CEM21 cell fusion, luciferase | 360,000 compounds, 1.1% hits | inhibition, % at 12.3 µM;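 active = mean replicate inhibition score of at least 50 and every replicate individually at or above 50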;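 also: 0% = plate neutral controls and 100% = maraviroc near 300 nM; one replicate is shown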
PABP FP inh: blocks human PABP binding to poly(A) RNA; P11940; fluorescence polarization; inhibition, % at 35 µM; 290,000 compounds, 1% hits; AID 2014;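 active = 50% or more with normal probe brightness, or confirmed in later tests; about a fifth of its hits are not listed in these tables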;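 also: calls also rest on retests at 20 µM and on dose response follow-up; controls were probe without protein and protein plus probe with vehicle; some compounds called inactive have numbers as strong as hits; many hits fall short of the cut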
eIF4H inh retest: recorded beside eIF4H inh, whose call it bears; inhibition, %; compound at 20 µM; confirmation average;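 mean of two retest wells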
PABP FP inh retest: recorded beside PABP FP inh, whose call it bears; inhibition, %; compound at 20 µM; confirmation repeats;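 mean of two retest wells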
MT1-MMP act inh RFP: second read-out of MT1-MMP act inh, no call of its own (marks repeat the call); RFP signal change, %; measured here: RFP expression control read;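 0 = vehicle wells; hits needed this value within 50% of zero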
* hit, by the source's call; i = inactive; · = no result given.

SMILES	UUG fidelity	CSC inhib	MT1-MMP act inh	MT1-MMP act inh RFP	Rce1 inh	eIF4H inh	HIV Env fusion	PABP FP inh	others
COc1ccccc1N1CCN(C(=O)C2CCC(CNS(=O)(=O)c3ccc(NC(C)=O)cc3)CC2)CC1 (stereo not given)	20	-13	2	-6	i	4	4	0
CCCc1nc2c3ccccc3ccn2c1Cc1ccc(OC)cc1C	10	·	-19	6	·	·	-8	·
CCCN(Cc1ccccc1)C(=S)Nc1cccc(C)c1C	·	11	1	5	i	-15	7	-20
Cc1ccc(S(=O)(=O)NCC(c2cccnc2)N2CCOCC2)cc1 (stereo not given)	-21	-9	3	5	i	-4	15	-8
CCOc1ccc(NC(=O)c2ccc3c(c2)C(=O)N(Cc2ccncc2)C3=O)cc1	-13	·	3	-3	·	·	1	·
CCC(C)(C)C1CCc2[nH]nc(C(=O)NCc3ccccn3)c2C1 (stereo not given)	-16	10	-3	-5	·	·	6	·
O=S(=O)(/N=C(/c1ccccc1)N1CCCCCC1)c1ccccc1	-9	-9	0	-4	i	-10	-1	-12
COc1ccc(C)cc1C1=Nc2ccccc2C1(C)C	-21	-1	4	3	i	-9	1	-7
COc1ccc(NC(=O)/C(C#N)=C/c2ccc(-c3ccc(Cl)c(C(=O)O)c3)o2)cc1	-11	-3	1	4	i	1	-13	18
COc1ccc(/C=C/C2=NN(C)C(=O)CC2)cc1	·	0	2	7	·	39	·	9
COc1cccc(N2CCN(C3CC(=O)N(c4ccc(Cl)cc4)C3=O)CC2)c1 (stereo not given)	-9	3	4	2	i	-1	·	2
O=[N+]([O-])c1ccc2c(c1)-c1ccccc1C2O (stereo not given)	-29	·	-3	-9	·	·	20	·
CC(C)n1c(SCC(=O)NC2CC2)nnc1C1CC1	-12	6	-1	4	i	-3	7	0
CCN(CC)c1ccc(NC(=O)c2ccccn2)cc1S(=O)(=O)Nc1ccccc1OC	-5	·	-2	-7	·	·	18	·
Cc1cnc(Nc2nc3ccccc3o2)nc1C(=O)Nc1cccc(C(F)(F)F)c1	-12	-12	1	-1	i	-1	1	2
O=C(COc1ccc(Br)cc1)NCCCNC(=O)c1cccnc1	-14	-18	-1	-1	i	12	4	2
O=C(COC(=O)C1CC1)NC(=O)c1ccccc1	-11	·	-3	4	·	·	0	·
COc1ccc(C)cc1NC(=O)c1cc2c(=O)n3ccccc3nc2n1C	0	-4	3	2	i	8	-19	7
O=C(CCC1CCCCC1)NCCN1C2=NC[C@H](Cc3ccccc3)N2C[C@H]1Cc1ccc(O)cc1	3	-7	-4	-3	i	2	-46	-8
CCOC(=O)C1=C(C)NC(SCC(N)=O)=C(C#N)C1c1ccccc1 (stereo not given)	-5	20	1	-3	i	2	2	-9
CC(=O)NCCNC(=O)C1Cc2c(-c3ccc(Cl)cc3)ccnc2O1 (stereo not given)	-4	·	-132	-74	·	·	5	·
COc1ccc(OC)c(C2C(C(=O)c3ccc(C)o3)=C(O)C(=O)N2CCCN2CCOCC2)c1 (stereo not given)	3	9	-3	-6	·	·	·	·
Cc1cccc(CS(=O)(=O)c2ncc(Cl)c(C(=O)Nc3ccc(F)cc3)n2)c1	-28	·	-4	-2	i	-10	-12	3
CCOc1cc(/C=C2/C(=N)N3OC(C)=CC3=NC2=O)ccc1OC	·	13	1	3	i	-8	10	3
O=C(CN1C(=O)NC2(CCCCCC2)C1=O)c1ccc2c(c1)OCCO2	-17	0	0	1	i	8	-85	3
CCN1CCN(S(=O)(=O)c2ccc(OC)cc2)CC1	-5	-8	-1	5	i	0	-4	-2
O=C(NCc1ccccc1Cl)C1CCCN(C(=O)Nc2ccc(F)cc2)C1 (stereo not given)	-17	-3	-2	-2	i	-11	-11	3
O=C(Nc1c(F)c(F)c(F)c(F)c1F)C1CCCCC1	-13	·	2	2	i	3	·	6
Cc1ccccc1C(=O)NC(NCC1CCCO1)C(Cl)(Cl)Cl (stereo not given)	-12	3	2	6	i	4	·	-2
CC1(C)C2CCC(C2)C1(C)NC(=O)C[N+](C)(C)C (stereo not given)	·	·	0	-2	i	3	8	7
CC1(C)CC(=O)C(C2(O)C(=O)Nc3ccccc32)CO1 (stereo not given)	-9	-17	-4	1	i	-8	10	5
NS(=O)(=O)c1ccc(CNC(=O)c2ccc(Br)o2)cc1	-17	4	-2	-5	i	1	-20	2
NC(=O)N/C=C1\CCCOC1=O	-15	·	-1	4	·	·	-40	·
CCC(C)(C)n1nnnc1C(c1cc(OC)ccc1OC)N1CCN(Cc2ccccc2)CC1 (stereo not given)	8	1	-2	3	i	-12	0	-3
CC(C)CCN1CCN(CCCc2ccccc2)CC1CCO (stereo not given)	-7	-3	-2	6	i	-6	-3	11
O=C(COc1ccccc1)OCC(=O)c1ccc(O)cc1O	-8	7	-4	-2	·	·	·	·

Three compounds drawn at random from the list so far:
SMILES	UUG fidelity	CSC inhib	MT1-MMP act inh	MT1-MMP act inh RFP	Rce1 inh	eIF4H inh	HIV Env fusion	PABP FP inh	others
O=S(=O)(/N=C(/c1ccccc1)N1CCCCCC1)c1ccccc1	-9	-9	0	-4	i	-10	-1	-12
CCOC(=O)C1=C(C)NC(SCC(N)=O)=C(C#N)C1c1ccccc1 (stereo not given)	-5	20	1	-3	i	2	2	-9
CCC(C)(C)C1CCc2[nH]nc(C(=O)NCc3ccccn3)c2C1 (stereo not given)	-16	10	-3	-5	·	·	6	·

Remaining list, next part
SMILES	UUG fidelity	CSC inhib	MT1-MMP act inh	MT1-MMP act inh RFP	Rce1 inh	eIF4H inh	HIV Env fusion	PABP FP inh	others
O=C(CC1SC(=NCC2CCCO2)NC1=O)Nc1cccc2ccccc12 (stereo not given)	7	-25	2	3	i	4	21	5
C=CCNC(=O)CSc1nc2sc3c(c2c(=O)n1CCCOC)CCC3	-8	-24	4	-3	i	-3	6	-1
O=C(/C=C/c1ccccc1)c1ccc2c(c1)OCCCCO2	-49	0	-4	-4	i	-1	-165	-7
O=C(CNC(=O)c1cccs1)NCC(=O)OCc1c(F)cccc1Cl	·	-2	1	3	i	-2	8	1
COc1ccc(C(=O)/C=C/Nc2ccc([N+](=O)[O-])cc2)cc1	·	-10	1	1	i	0	·	-1
CCc1nc(-c2ccccc2)c2ccccn12	-52	-7	-2	1	i	2	13	12
COc1ccc(CN(CCC(C)C)S(=O)(=O)c2ccccc2Br)c(OC)c1	-16	·	-9	-9	·	·	20	·
COc1ccc(C2(c3ccc(O)cc3O)CC(c3ccccc3Cl)NC(=S)N2)cc1 (stereo not given)	-3	9	0	2	i	-6	9	-8
CCCc1nc2c(s1)CCc1onc(-c3ccc(Cl)cc3)c1-2	-41	8	-3	3	i	·	-101	·
Cc1ccc(OCc2ccc(C#N)cc2)c(C(=O)c2cc(C#N)c(=O)n(C3CC3)c2)c1	·	-4	-1	-2	i	-12	2	8
Cc1ccc(C(=O)Nc2c(N)nc(SCC(=O)Nc3cc(C)on3)[nH]c2=O)cc1	-6	-2	0	3	i	4	·	4
CCCn1c(=O)c(C(=O)NCC2CCCO2)c(O)c2ccccc21 (stereo not given)	·	23	1	3	i	-7	-11	-8
CCOC(=O)C1CCCCN1Cc1cn(C)nc1-c1ccccc1F (stereo not given)	-12	-4	-1	1	i	-1	-1	20
Cc1cc(C)n(CCc2nc(-c3cc4ccccc4o3)cs2)n1	-16	0	-5	-19	i	-3	·	-8
CCn1c(SCC(=O)c2cc(OC)ccc2OC)nnc1C1CC1	-9	18	8	2	i	-6	6	-3
CCCCN(C(=O)COC(=O)c1nc2nc(C)cc(C)n2n1)C1CCS(=O)(=O)C1 (stereo not given)	-37	-12	-2	4	·	·	·	·
CN(C)S(=O)(=O)c1ccc(-c2csc(N/N=C/c3ccco3)n2)cc1	·	20	-11	-30	i	-2	29	5
CCCCCCC(C)n1cc(C(C)=O)c(=O)[nH]c1=O (stereo not given)	-7	-5	-6	0	i	4	-406	10
C/C(Cn1cnc([N+](=O)[O-])n1)=N\NC(=O)c1ccccc1F	-12	0	-1	1	i	·	-58	·
Cc1cc(NC(=O)Cn2nnc3sc4c(c3c2=O)CCC(C(C)(C)C)C4)no1 (stereo not given)	-3	31	-6	-8	i	-7	-55	-7
COc1cc(OC)cc(-c2c(C#Cc3ccsc3)c3cc(-c4ccc(OC)c(OC)c4)ccc3n2C)c1	-19	·	-5	2	·	·	10	·
Cc1ccc(-n2c(SCC(N)=O)nnc2-c2ccccn2)cc1	-23	-1	3	6	i	-2	-10	-8
CC1CC(C)(C)CC(=O)C1C(=O)c1ccccc1 (stereo not given)	-16	2	2	0	i	·	-2	·
CC(C)(C)CC(=O)O/N=C(\N)c1ccccn1	·	-9	1	2	i	-8	6	-9
O=C(Nc1cc2c(cc1Cl)OCCCO2)c1ccc(F)cc1	·	-6	2	3	i	-5	-106	-5
CC(C)CCNC(=O)C1CCN(Cc2cccc(OCc3ccccc3)c2)CC1	-6	7	2	-3	·	12	-18	14
CC(=O)c1ccc(N2CCN(C(=O)c3c(-c4ccccc4Cl)noc3C)CC2)cc1	-2	-5	-3	-5	i	-15	1	-9
CCNC(=O)C1CCCN(C(=O)c2ccc(OC)cc2OC)CC1 (stereo not given)	-12	·	-3	4	·	·	13	·
Cc1csc2c(N3CCN(C(=O)Nc4ccc(Cl)c(Cl)c4)CC3)ncnc12	-6	11	3	-5	i	-5	8	-7
O=C(O)CCNC(=O)CCCn1nnc2ccccc2c1=O	-20	-2	1	3	i	6	16	8
CCOC(=O)c1cc2nc(OCC)nc(OCC)c2[nH]1	-7	·	2	-2	·	·	-97	·
O=C(Nc1ccncc1)c1ccc(NS(=O)(=O)c2cccc(F)c2)cc1	11	50	-8	-21	i	-16	·	-8
CN(C)c1nc(C(=O)Nc2ccccc2)nc(N(C)C)n1	-13	0	-4	-2	i	-10	·	0
O=C1CCc2cc(S(=O)(=O)N3CCC(C(=O)NC4CCCc5ccccc54)CC3)ccc2N1 (stereo not given)	6	-13	-2	5	i	7	-10	9
CCc1ccccc1NC(=O)N1CCCC(CCC(=O)N(C)CCc2ccccn2)C1 (stereo not given)	5	-31	5	6	i	-3	9	-5
O=C1N/C(=N/O)S/C1=C/c1cccc([N+](=O)[O-])c1	-4	·	2	1	i	2	-60	-3
O=P1(c2ccccc2)C=Cn2c1cc1c2CCCC1 (stereo not given)	-7	1	0	2	i	·	-43	·
CCCCCCN1N=C(C)C(C(=O)c2ccc(Cl)cc2)C1=O (stereo not given)	·	36	4	5	i	-11	-19	-7
CCOc1cc(/C=N/n2c(COc3ccccc3)n[nH]c2=S)ccc1O	-16	-11	5	-4	i	-9	13	-1
O=C(NC1(C(F)(F)F)NC(=O)N(Cc2cccnc2)C1=O)c1ccccc1 (stereo not given)	-1	-2	0	1	i	-9	-46	-4
COc1ccc(Nc2cccc(Cl)c2)c(C(=O)O)c1	-13	23	0	1	i	-3	-11	8
Cc1c(NC(=O)C(C)Sc2ncnc3ccccc23)c(=O)n(-c2ccccc2)n1C (stereo not given)	-16	-10	0	2	i	-2	5	13
O=C(Cc1ccccc1)N/N=C/c1ccc(Cl)cc1Cl	3	·	-11	-7	·	-2	-31	0
O=C(N/N=C(\c1ccccc1)c1ccccn1)c1ccccc1Cl	-14	25	5	0	i	-5	35	-6
COc1cc(C2CC(=O)Oc3c2c(=O)n(C)c2ccccc32)ccc1O (stereo not given)	·	-11	-2	0	i	64*	-2	23	eIF4H inh retest=62*;PABP FP inh retest=19
Fc1ccc(-n2c(-c3cc(C4CC4)[nH]n3)n[nH]c2=S)cc1Cl	·	-3	3	-1	i	-2	-10	1
O=C(c1noc2c1CCCC2)N1CCN(c2ccc(F)cc2)CC1	·	-9	2	-2	i	11	·	5

Screening results (PubChem)

These rows are one share of the data. The share of hits here may be higher or lower than overall.
